VDR inh: vitamin D3 receptor (human) inhibition; P11473; VDR-SRC2-3 peptide fluorescence polarization, 2 h; Potency, µM, inactives show max response, negative = inhibition, actives largely listed as inhibitors; actives 0.93% (n = 400,000); AID 504847; active means well fitted inhibition curve with a large enough effect; inconclusive means small, poorly fitted or top-dose-only effect, or another doubt; inactive means no such curve, though single readings can be large or run the other way; further: series mostly up to about 120 µM
Target sequence (P11473 whole entry, looked up): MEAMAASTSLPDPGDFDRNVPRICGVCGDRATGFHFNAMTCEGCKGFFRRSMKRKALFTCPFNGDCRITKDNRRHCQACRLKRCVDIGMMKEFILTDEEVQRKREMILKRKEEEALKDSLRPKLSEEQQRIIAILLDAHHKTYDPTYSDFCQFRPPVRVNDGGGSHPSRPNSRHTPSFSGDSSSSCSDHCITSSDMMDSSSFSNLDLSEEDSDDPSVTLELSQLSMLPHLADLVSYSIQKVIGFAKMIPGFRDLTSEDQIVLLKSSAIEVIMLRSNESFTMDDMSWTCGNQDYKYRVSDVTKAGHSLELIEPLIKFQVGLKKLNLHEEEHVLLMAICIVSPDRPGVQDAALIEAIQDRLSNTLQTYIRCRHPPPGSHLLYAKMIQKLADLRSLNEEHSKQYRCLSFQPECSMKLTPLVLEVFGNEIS
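Fluorescence polarization assay measuring small-molecule disruption of VDR binding to the coregulator peptide SRC2-3. Compounds were pin-transferred (23 nl) into the reagent mix and incubated 2 h at room temperature before reading.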
Numbers without * were called inactive; ? = inconclusive; & = joins results of further samples. On the % scale 0 is the no-effect control and ±100 the full control effect; potency means the concentration at half of the fitted maximal effect.

SMILES | VDR inh
O=C(Nc1cccnc1N1CCOCC1)c1cc2ccccc2oc1=O | 10%
Cc1cc(=O)n(Cc2ccc(F)cc2Cl)c2c1c(C)nn2C | 6%
O=C(Nc1nnc(-c2ccc(Cl)cc2)o1)Nc1ccccc1F | 1%
CSc1nc(N)nc2c1ncn2CC(=O)NCc1ccccc1 | 2%
CCOc1ccccc1C(=O)NC1CC2CCCC(C1)N2Cc1ccc(C)cc1 (configuration not stated) | 0%
CC(C)NC(=S)N=Nc1c(O)[nH]c2ccc(C(C)C)cc12 | -7%
CC(/C=N/n1c(-c2cccnc2)n[nH]c1=S)=C\c1ccco1 | -4%
CCOc1cc(C(=O)Nc2ccc3c(c2)OCO3)ccc1OCCOc1ccccc1Cl | 1%
O=C(NNc1ccc(O)cc1)c1ccc(Br)cc1 | ?
Cc1nn(S(=O)(=O)c2ccc(C(C)(C)C)cc2)c(C)c1S(=O)(=O)N1CCOCC1 | 4%

Following part.
SMILES | VDR inh
CCc1ccc2nc(N(CCCN(C)C)C(=O)c3ccc4c(c3)OCCO4)sc2c1 | 2%
CC(OC(=O)CCCN=C1NS(=O)(=O)c2ccccc21)C(=O)c1ccccc1 (configuration not stated) | -4%
CCCCNC(=O)c1ccc(/C=C2\Oc3ccccc3N(C)C2=O)cc1 | -8%
Cc1cc(=O)n2nc(N3CCCC(C(=O)Nc4ccc(C)c(C)c4)C3)sc2n1 (configuration not stated) | -12%
CCOc1ccccc1C(=O)N/N=C/c1coc2ccc(Cl)cc2c1=O | -13%
CC1CCCCN1CC(=O)Nc1ccc2c(c1)OCO2 (configuration not stated) | -13%
N/C(CC(=O)NCCOc1ccccc1)=N\O | -3%
CC(=O)Nc1nonc1-c1nnc(SCC(=O)Nc2c(C)cccc2C)n1-c1ccccc1 | 9%
Cc1ccc(NC(=O)CN2C(=O)S/C(=C\c3ccc(OCC(=O)O)c(Br)c3)C2=O)cc1 | -24%
CCN1CCN(c2ccc(S(=O)(=O)N3CCCCC3)cc2NC(=O)c2cccc(OC(F)F)c2)CC1 | -2%

(next part)
SMILES | VDR inh
Cn1c(=O)[nH]c(=O)c2c1nc(Br)n2Cc1cccc(Br)c1 | 7%
CCOC(=O)C(C)Oc1cccc2c(=O)n(CC(=O)Nc3cccc(OC)c3)ccc12 (configuration not stated) | -10%
CC(C)C(=O)Nc1ccc2c(c1)nc1n2CCSC1 | -28%
COc1cccc(/C=N/NC(=O)c2c(-c3ccccc3)noc2C)c1OC | -13%
COc1ccc(N2CCN(CCCNC(=O)c3nnc(Cc4ccc(F)cc4)o3)CC2)cc1 | 21%
COc1ccc(CN(C)C(=O)CNC(=O)c2cccs2)c(OC)c1 | 0%
CCn1c2ccccc2c2cc(CC(N)=O)ccc21 | -14%
Cc1cccc(C(=O)N[C@H](C(=O)Nc2nc(C)cs2)C(C)C)c1 | 11%
C/C(Cn1nc([N+](=O)[O-])cc1C)=N\NC(=O)c1cccc(Br)c1 | -5%
CCc1ccc(NC(=O)c2cnc3n(c2=O)CCS3)cc1 | 2%

(cont.)
SMILES | VDR inh
c1ccc(Nc2nc3ccccc3[nH]2)nc1 | -14%
Cn1cccc1Cc1nnc(SCC(=O)Nc2ccc(F)cc2F)n1-c1ccc(F)cc1 | -7%
Cc1ccc(CC(=O)N2CCN(c3ccccc3F)CC2)cc1 | -11%
COc1ccccc1Cc1nc2ccccc2nc1SCC(=O)Nc1cccc(Cl)c1C | 4%
Cc1nnc(NC(=O)C2CC(=O)N(c3ccc4c(c3)OCCO4)C2)s1 (configuration not stated) | -1%
CCN(CC)c1ccc(NC(=S)NC(=O)c2ccco2)cc1 | 79µM*
Clc1ccc(CN2CCCCCC2)cc1Cl | 0%
NS(=O)(=O)c1ccc(N/C=C\C(=O)c2cccc3ccccc23)cc1 | -15%
O=[N+]([O-])c1ccc(COc2ccccc2/C=N/O)cc1 | -7%
COC(=O)C(Cc1ccccc1)NC(=O)CCc1c[nH]c2ccccc12 (configuration not stated) | -1%

Reprinted from the part before: 3 entries; new compounds follow.
SMILES | VDR inh
NS(=O)(=O)c1ccc(N/C=C\C(=O)c2cccc3ccccc23)cc1 | -15%
O=[N+]([O-])c1ccc(COc2ccccc2/C=N/O)cc1 | -7%
COC(=O)C(Cc1ccccc1)NC(=O)CCc1c[nH]c2ccccc12 (configuration not stated) | -1%
CCc1ccc(C(=O)NCc2cnn(C)c2)s1 | 6%
Cc1ccc(S(=O)(=O)N2CCOCC2)cc1C(=O)N1CCOCC1 | -8%
CN(C)c1ccc(/C=N/NC(=O)C(=O)/C=C2\NC3(CCCC3)Cc3ccccc32)cc1 | -4%
Cc1ccccc1C(=O)Nc1nnc(-c2cccnc2)o1 | -13%
CCOC(=O)C1CCCN(C2=NC(=O)/C(=C/c3ccc(OC)cc3OC)S2)C1 (configuration not stated) | ?
O=C(NCc1ccccc1)NC1(C(=O)N2CCN3CCCC3C2)CCCCC1 (configuration not stated) | 5%
C/C(=N\NC(=O)c1cccnc1)c1nnn(-c2nonc2N)c1C | -13%
CCC(C)(C)C1CCc2c(sc(NC(=O)C3c4ccccc4Oc4ccccc43)c2C(N)=O)C1 (configuration not stated) | -5%
CCc1ccc(-c2cc(C)no2)cc1S(=O)(=O)N1CC(=O)Nc2ccccc21 | -9%
CCOC(=O)c1sc2nc3c(SCC(=O)O)cc(C(=O)c4cc(F)ccc4O)cn3c(=O)c2c1C | -21%

An excerpt of these results, as labelled records:
Cc1ccc(S(=O)(=O)N2CCOCC2)cc1C(=O)N1CCOCC1
  VDR inh: -8%

CN(C)c1ccc(/C=N/NC(=O)C(=O)/C=C2\NC3(CCCC3)Cc3ccccc32)cc1
  VDR inh: -4%

Cc1ccccc1C(=O)Nc1nnc(-c2cccnc2)o1
  VDR inh: -13%

CCOC(=O)C1CCCN(C2=NC(=O)/C(=C/c3ccc(OC)cc3OC)S2)C1 (configuration not stated)
  VDR inh: ?

(continued)
SMILES | VDR inh
O=C(NCc1ccc2c(c1)OCO2)c1cc(-c2ccccn2)nc2ccccc12 | -4%
Cc1ccccc1N=CC1=C(O)c2ccccc2C1=O | 4%
NC1=NC(=O)/C(=C/c2cccs2)S1 | 14%
Cc1ccc(C(=O)Nc2ccc(S(=O)(=O)Nc3ncccn3)cc2)cc1[N+](=O)[O-] | -23%
COc1ccc(C(=O)COC(=O)c2nn(C)c(=O)c3ccccc23)c(OC)c1 | 3%
Cc1ccc(OCCNC(=O)c2ccc(C)cc2)cc1 | 0%
O=C(COc1ccccc1Cl)Nc1cccc(S(=O)(=O)NC2=NCCCCC2)c1 | -19%
NC(=O)NCc1ccc(C(=O)OCc2ccncc2)cc1 | -11%
CCN(Cc1ccccc1)C(=O)CN1C(=O)c2ccccc2S1(=O)=O | -4%
O=C1C[C@@H](c2ccc(O)c(O)c2)Oc2cc(O[C@H]3O[C@@H](CO)[C@H](O)[C@@H](O)[C@@H]3O)cc(O)c21 | -1%

Other records follow:
SMILES | VDR inh
C#CCOCCOCCOCCNc1nc(N2CCN(C(=O)[C@H]([C@@H](C)CC)n3cc(CCC(=O)O)nn3)CC2)nc(N2CCN(C(=O)[C@H](CCCCN)n3cc(CC(C)O)nn3)CC2)n1 (some centres not stated) | -29%
COc1ccc(-n2ncc(C(=O)Nc3ccc(C)cc3Cl)c2C2CCN(C(=O)OC(C)(C)C)CC2)cc1 | 19%
C[C@@H](Nc1nc(Cl)nc2nc[nH]c12)c1ccccc1 | ?
CCSc1nnc(-c2cccnc2)n1-c1ccc(C)c(Cl)c1 | -20%
Cn1c(-c2ccc3nc(N)sc3c2)nc2cc(N)ccc21 | 7%
Cc1ccc(C)c(CN2CCC(CNC(=O)Nc3ccc(Cl)cc3)CC2)c1 | 14%
CCn1nnnc1SCC(=O)Nc1nc(C)c(C)s1 | 2%
C=CCN1C(=O)/C(=N/n2cnnc2)c2ccccc21 | 40µM*
CCCNC(=O)Cn1cnc2sc(C(=O)N3CCN(Cc4ccc5c(c4)OCO5)CC3)c(C)c2c1=O | -9%
Nc1nc(CSc2ccccc2)nc(N2CCCCC2)n1 | -3%

The list continues.
SMILES | VDR inh
COc1ncnc2c1oc1nc(CC(C)C)c3c(c12)CC(C)(C)OC3 | 10%
CC(=O)Nc1cccc(C(=O)/C=C/c2ccc(F)cc2)c1 | ?
CCOC(=O)Cn1c(=O)n(Cc2ccco2)c(=O)c2ccc(C(=O)NCCc3ccccc3)cc21 | 8%
CC1CCCCN1CCCNc1ccc(C(CC(N)=O)NC(=O)Cc2ccc(Br)cc2)cc1[N+](=O)[O-] (configuration not stated) | -19%
COCCNC(=O)c1ccc2c(=O)n(Cc3ccco3)c(SCC(=O)NC3CCCC3)nc2c1 | -1%
N#CCCN(C(=O)COC(=O)c1ccc(S(=O)(=O)N2CCOCC2)cc1)c1ccccc1 | -6%
COc1cc(/C=N/NC(=O)Cn2cnc3c2c(=O)n(C)c(=O)n3C)cc(OC)c1OC | -11%
CCOc1ccc(-n2c(CC)nc3c(cnn3-c3ccc(Cl)cc3)c2=O)cc1 | -1%
CCN(c1cccc(C)c1)S(=O)(=O)c1cc(Br)cc2c1N(C(C)=O)C(C)C2 (configuration not stated) | -21%
CC(Sc1nc2c(N)ncnc2n1CCOc1ccccc1)C(=O)O (configuration not stated) | -3%

New compounds follow.
SMILES | VDR inh
Cc1ccc(NC(=O)CNS(=O)(=O)c2cccs2)cc1F | 0%
O=c1[nH]c(SCc2ccc(F)cc2Cl)nc2ccccc12 | -1%
CCOC(=O)c1ccc(NS(=O)(=O)c2cc(Br)cc3c2N(C(C)=O)C(C)C3)cc1 (configuration not stated) | -10%
O=C(N/N=C/c1cccc(F)c1)c1ccc(Cl)cc1 | -5%
CCCCNC(=O)Nc1ccccc1C(=O)NCCC | 7%
Nc1ncnc2c1ncn2CCN1CCOCC1 | -11%
COc1ccc(NC(=O)CN(C)C(=O)c2c(C)nn(-c3ccccc3)c2Cl)cc1 | -4%
CCCCn1nnnc1SCC(=O)NNC(=O)c1ccco1 | ?
Cc1[nH]c2ccccc2c1C(=O)CSCC(=O)O | -8%
C/C(=C\C(=O)c1ccc(Cl)cc1)Nc1ccc(N2CCOCC2)cc1 | -1%
CCOc1ccccc1NC(=O)CCNS(=O)(=O)c1ccccc1 | -1%
Cc1cccc(OCCN2CSC(=S)N(C)C2)c1 | -11%
CCN(Cc1ccccc1)C(=O)c1cccnc1 | -6%
C/C(=N\NC(=O)c1ccco1)c1ccc(NC(=O)c2cccs2)cc1 | -16%
O=C(CSc1nc2c([nH]c3ccccc32)c(=O)n1-c1ccc(F)cc1)N1CCc2ccccc21 | 0%
CCN(CC)C(=O)c1[nH]cnc1C(=O)Nc1ccc(OC)cc1 | -31%
CCN(CC)CCCNC(=O)C1CCC(CNS(=O)(=O)c2c(C)cc(C)cc2C)CC1 (configuration not stated) | 12%
CC1CCCN(C(=O)CCS(=O)(=O)c2cc3c(cc2Cl)NC(=O)CO3)C1 (configuration not stated) | -16%&0%
CCCCC(CC)COC(=O)/C=C/c1ccc(OC)cc1 (configuration not stated) | 3%
COc1cc(Cl)c(C)cc1NC(=O)c1cn(CC(C)C)c(=O)c2cc(OC)c(OC)cc12 | 2%
CC(=O)Nc1nc(C)c(C(C)C)s1 | -1%
COC(=O)C1CCN(c2c([N+](=O)[O-])cc(C(F)(F)F)cc2[N+](=O)[O-])CC1 | -19%
CCOC(=O)C1(N(CC)CC)Sc2cc(C)ccc2NC1=O (configuration not stated) | 8%
S=C(Nc1ccc2nsnc2c1)NC1CCCCC1 | 5%
Cc1ccc(-n2c(C)cc(/C=N/NC(=O)c3ccncc3)c2C)cc1C | ?

Continuation.
SMILES | VDR inh
COC(=O)c1c(-c2ccc(F)cc2)noc1N | -5%
COC(=O)c1ccccc1NC(=O)[C@@H]1CCC(=O)N1C1OC(=O)c2c1ccc(OC)c2OC (some centres not stated) | 10%
O=C(NCc1ccco1)c1cc(-c2ccccn2)nc2ccccc12 | -3%
Nc1ccc(C(=O)N2N=C(c3ccccc3)CC2(O)C(F)(F)F)cc1 (configuration not stated) | 15%
CCOc1cc(/C=N/Nc2nc(N3CCCCC3)nc(N3CCCCC3)n2)ccc1OC(=O)c1ccco1 | -2%
COc1ccc(CNC(=O)C2CCCN(S(=O)(=O)N(C)c3ccc(F)cc3)C2)cc1OC (configuration not stated) | 9%
Cc1ccc(/C=N/NC(=O)c2cccs2)o1 | -10%
Cc1csc(-c2cnn(-c3ccccc3)c2NC(=O)c2ccc(C(F)(F)F)cc2)n1 | -7%
Cc1ccc(Nc2nc3ccccc3nc2-n2nc(C)cc2C)cc1 | -21%
C/C(CC(=O)Nc1ccc(N(C)C)cc1)=N\NC(=O)c1ccccc1O | 2%
O=C(NCCN1CCN(Cc2ccccc2)CC1)c1ccc(CS(=O)(=O)c2ccc(Br)cc2)o1 | -11%
O=C(CNC(=O)c1ccc(-c2ccccc2)cc1)Nc1ccc(S(=O)(=O)Nc2ncccn2)cc1 | 1%
CSc1ccccc1NC(=O)COc1ccccc1C | -9%
CN(C)C(=O)c1nnc(Cc2ccc(Cl)cc2)o1 | 8%
COc1ccc(-c2coc3cc(O)ccc3c2=O)c(OC)c1 | 2%
CCc1ccc(S(=O)(=O)c2cnc(SCC(=O)Nc3ccc(OC)cc3OC)[nH]c2=O)cc1 | 3%
COc1ccc(C)cc1S(=O)(=O)N1CCCC(C(=O)N2CCN(c3ccccc3)CC2)C1 (configuration not stated) | 7%
COc1ccc(CNC(=O)C(=O)NCC2OCCN2S(=O)(=O)c2ccc(OC)cc2)cc1 (configuration not stated) | 1%
COc1ccc2c(=O)ccoc2c1 | 1%
Cc1cccc(NS(=O)(=O)c2ccc3c(c2)[C@H]2C=CC[C@H]2[C@@H](c2ccc(F)cc2)N3)c1 | 6%
Cc1ccc2oc(-c3ccc(C)c(NC(=O)c4ccc5c(c4)OCCO5)c3)nc2c1 | 14%
Cc1noc(NS(=O)(=O)c2ccc(N3C(=O)c4ccccc4C3=O)cc2)c1C | -6%
CCCc1cc(C(=O)OC)c2ccccc2n1 | -9%
CCn1c(CSc2ncccn2)nnc1SCC(=O)N1CCc2ccccc21 | 20%

High-throughput results as filed in PubChem.

Not all compounds are listed; count on the stated rates, not on these rows.
